# Assay outcomes deposited in PubChem BioAssay by Broad Institute.
# Beta apoptosis = inhibitors of cytokine-induced beta cell apoptosis, primary screen, luminescence. AID 435005, 2010. protection from apoptosis, % (concentration not given with the values). INS-1E cytokine-induced death, ATP luminescence, 48 h; percent of positive-control rescue, neutral wells zero. 300,000 tested, 0.8% active;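 active = all replicates at 75% or more, or half of them and the mean; inconclusive = half reach 75% but not the mean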;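 also: 0% = cytokine-treated negative control wells and 100% = positive control rescue; higher means more ATP so stronger rescue from cytokine killing; wells of about 40 µL received 100 nL stock; the first replicate is given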
# FGF22 binding = binders of human FGF22 protein, primary screen, FGF22 synaptogenesis inhibitor project, biophysical, thermal shift, single point; Fibroblast growth factor 22 (Homo sapiens), Q9HCT0; recombinant FGF22 thermal shift, SYPRO orange fluorescence; percent of sucrose octasulfate shift, DMSO zero; calls only at 9.99 µM; 340,000 tested, 1.5% active; AID 651658, 2012;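 active = melting point raised past a set limit in the mean and every replicate; inconclusive = no clear call; three in four hits are not shown here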
# Target sequence (Q9HCT0 whole entry, looked up): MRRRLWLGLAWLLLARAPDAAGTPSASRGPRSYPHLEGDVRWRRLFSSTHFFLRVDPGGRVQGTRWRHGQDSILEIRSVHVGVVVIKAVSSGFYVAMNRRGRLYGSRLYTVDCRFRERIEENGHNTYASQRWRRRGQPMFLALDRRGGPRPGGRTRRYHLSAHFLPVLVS
# AF4-AF9 inh = inhibitors of AF4 peptide binding to AF9, primary screen, biochemical, AlphaScreen, biotin-AF4 peptide, FLAG-AF9, single point; Protein AF-9 (Homo sapiens), P42568; inhibition, % at 10 µM; 350,000 tested, 0.47% active; AID 651704, 2012;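 active = every replicate reaching a set inhibition limit, whatever the replicate mean, cut at about 25% in these data; inconclusive = mean inhibition reaches that limit but some replicates miss it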;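 also: 0% = plate neutral control median and 100% = total signal loss; the record names both 10 and 1 µM as test concentration; the first replicate is given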
# Target sequence (P42568 whole entry, looked up): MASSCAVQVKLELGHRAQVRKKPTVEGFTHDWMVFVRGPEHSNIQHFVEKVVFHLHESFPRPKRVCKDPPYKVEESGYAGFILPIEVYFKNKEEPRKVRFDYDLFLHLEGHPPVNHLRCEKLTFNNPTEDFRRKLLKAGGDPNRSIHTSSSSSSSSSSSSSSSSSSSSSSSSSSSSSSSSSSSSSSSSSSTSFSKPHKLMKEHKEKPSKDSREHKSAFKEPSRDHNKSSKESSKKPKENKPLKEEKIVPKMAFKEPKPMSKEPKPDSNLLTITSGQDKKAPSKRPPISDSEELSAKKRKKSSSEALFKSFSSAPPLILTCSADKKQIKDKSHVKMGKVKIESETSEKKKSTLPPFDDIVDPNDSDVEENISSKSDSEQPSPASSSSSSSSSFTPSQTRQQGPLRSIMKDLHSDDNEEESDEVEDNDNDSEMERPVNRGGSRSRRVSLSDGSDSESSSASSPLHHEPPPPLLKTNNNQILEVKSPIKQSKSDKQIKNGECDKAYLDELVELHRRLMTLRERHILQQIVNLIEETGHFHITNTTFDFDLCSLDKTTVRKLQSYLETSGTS
# ALR inh = inhibitors of human ALR sulfhydryl oxidase, primary screen, biochemical, H2O2 detection, HRP-luminol luminescence, single point; FAD-linked sulfhydryl oxidase ALR (Homo sapiens), P55789; purified ALR, DTT oxidation; inhibition, % (no concentration beside the values); 290,000 tested, 3.8% active; AID 485317, 2010;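 active = mean and each replicate at 75% or more; inconclusive = only one of the two met; inactive = neither met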;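 also: stock transfer was 7.5 nL into about 7.5 µL; 0% = neutral wells and 100% = wells with inactivated enzyme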
# Target sequence (P55789 whole entry, looked up): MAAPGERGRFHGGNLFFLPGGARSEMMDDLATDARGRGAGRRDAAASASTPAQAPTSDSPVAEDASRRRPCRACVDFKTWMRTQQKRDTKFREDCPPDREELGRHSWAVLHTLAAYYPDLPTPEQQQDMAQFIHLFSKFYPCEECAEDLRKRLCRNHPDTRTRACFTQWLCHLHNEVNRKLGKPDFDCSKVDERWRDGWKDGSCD
# RanGTP-Impb inh = inhibitors of RanGTP-importin-beta interaction, primary screen, biochemical, FRET, CFP-Ran, YFP-importin-beta, homogeneous | AID 2216, 2009 | 300,000 tested, 1.1% active | Ran GTPase (GTP-bound) - importin-beta complex | inhibition, % (concentration not given with the values) | cell-free CFP-Ran/YFP-importin-beta FRET ratio;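 active = most replicates above 15%; inconclusive = exactly half above 15%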;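 also: 0% = DMSO wells and 100% = Ran loaded with GDP instead of GTP; wells of about 40 µL received 100 nL stock; the first replicate is given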
# T cruzi inh = inhibitors of intracellular T. cruzi growth, primary screen, luminescence, NIH3T3 host cells | T. cruzi beta-gal in NIH3T3, 90 h | inhibition, % (concentration not given with the values) | 300,000 tested, 1.4% active | AID 1885, 2009;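 active = mean inhibition across valid replicates above about 55%, limit read from the data; inconclusive = mean below that limit but half or more replicates reach it; inactive = mean below it, under half of replicates reach it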;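 also: signal also drops with host cell toxicity which is not excluded here; 0% = plate median of DMSO wells and 100% = zero luminescence signal; higher percent means less beta-gal luminescence so fewer parasites; stock transfer was 50 nL into about 50 µL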
# rRNA inh HTS = reduced GFP signal of wild-type E. coli, primary screen, bacterial rRNA inhibitor project, GFP/RFP fluorescence, OD600, single point; E. coli WT GFP vs humanized-ribosome RFP mutants, 24 h; active compounds read low; DMSO median 0, no signal -100; GFP signal change (wild-type ribosome), % (test concentration not listed); 350,000 tested, 1.6% active;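 active = significant combined selectivity score with lowered wild-type GFP, culture density cut under 30%, mutant RFP and density less affected; inactive = any of these conditions unmet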; also: one replicate is shown; some compounds called inactive have numbers as strong as hits
# Calb FLC = C. albicans growth inhibition with fluconazole, primary screen, CaCi-2 strain, Alamar Blue fluorescence. 300,000 tested, 0.57% active. growth inhibition, % (test concentration not listed). AID 1979, 2009. C. albicans CaCi-2 (fluconazole-resistant clinical isolate) + fluconazole, 48 h;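 active = most replicates above 75%; inconclusive = exactly half above 75%; inactive = most below 75%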;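 also: all wells also contain fluconazole at 8 µg/ml as a sub-toxic cotreatment; 0% = median of DMSO wells and 100% = median of geldanamycin control wells; wells of about 8 µL received 7.5 nL stock; the first replicate is given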
# rRNA inh HTS OD600 = recorded beside rRNA inh HTS, whose call it bears; OD600 change, %; measured here: OD600 growth;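 optical density of the mix in the first replicate; 0 = DMSO median and -100 = no signal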
# rRNA inh HTS RFP = second read-out of rRNA inh HTS, no call of its own (marks repeat the call); RFP signal change, %; measured here: RFP humanized mutant strains;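 first replicate; 0 = DMSO median and -100 = no signal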
# * marks the source's active call; other numbers are inactive results; i = inactive; ? = inconclusive; . = not tested or not shown.
compound,Beta apoptosis,FGF22 binding,AF4-AF9 inh,ALR inh,RanGTP-Impb inh,T cruzi inh,rRNA inh HTS,rRNA inh HTS OD600,rRNA inh HTS RFP,Calb FLC
CCOc1cc(C(=O)Nc2cc(C)ccn2)cc(OCC)c1OCC,.,.,.,-6,-6.8,2,.,.,.,-2
CC(=O)c1cccc(N(C(=O)CS(=O)CC(=O)Nc2ccc(F)cc2)C(C(=O)NC2CCCCC2)c2ccc(C)o2)c1 (stereo not drawn),-7,.,.,-8,-2.0,2,.,.,.,-10
COC(=O)c1cn(NC(=O)Cc2cccc(C(F)(F)F)c2)c(=O)c2ccccc12,0,i,1.1,0,-4.4,-10,7,5,-0.8,3
CC(=O)Nc1ccc(S(=O)(=O)NCC(CCC(=O)O)C(F)(F)F)cc1 (stereo not drawn),-7,i,-2.8,-9,-0.9,-11,13,3,-0.2,34
CCN(CC)S(=O)(=O)c1ccc(N=Nc2c(N)[nH]c(=O)[nH]c2=O)cc1,-5,i,-39,-6,4.6,-4,1,3,5.5,6
O=C(C1CC(Cl)CN1S(=O)(=O)c1ccc(Cl)cc1)N1CCOCC1 (stereo not drawn),-1,i,-1.9,-14,0.9,0,12,14,4.5,1
CC(CNC(=O)c1ccc(N)cc1)NC(=O)c1ccc(N)cc1 (stereo not drawn),0,i,-0.6,-1,-1.4,0,13,16,-12,-17
C/C(CC1(O)C(=O)N(Cc2ccccc2)c2ccccc21)=N\O (stereo not drawn),3,.,.,1,0.9,-8,.,.,.,-4
O=C(CN1CCN(c2ncccn2)CC1)Nc1ccccc1-n1cccc1,6,i,12,8,6.3,-6,-7,-8,3.6,-36
COc1cc(C(=O)OCC(=O)Nc2cc(C)on2)cc(OC)c1OC,0,.,.,-12,1.6,2,.,.,.,-7
CCN1C(=O)C2C(c3ccc(O)c(OC)c3)NC(C)(C(=O)OC)C2C1=O (stereo not drawn),-10,.,.,52,7.3,-17,.,.,.,-3
CCC(C(=O)NCCCN1CCCC1=O)n1c2ccccc2c2nc(=O)cc(C)n21 (stereo not drawn),-2,i,0.7,-3,6.6,-21,1,1,-1.0,-5
COc1ccccc1OCC(O)CNCc1ccc2c(c1)OCO2 (stereo not drawn),-1,i,.,6,-0.6,-3,0,-20,-0.8,0
CCCCN(c1ccccc1)S(=O)(=O)c1cccc2cccnc12,8,i,-0.4,.,6.6,5,-48,-53,-7.3,-6
CCCN(CC(=O)Nc1cc(C)on1)CC(=O)Nc1ccc(F)c(F)c1F,1,i,0.1,-3,.,.,4,14,1.0,.
Fc1ccc(CN2CCN(C(=S)NCCc3ccccc3)CC2)c(Cl)c1,.,i,-1.6,-23,1.2,22,-2,3,-0.5,-14
COc1cc(C(CC(=O)Nc2ccc(C)cn2)N2Cc3ccccc3C2=O)cc(OC)c1OC (stereo not drawn),-5,i,-1.5,3,?,6,18,14,0.9,-4
Cc1ccc(S(=O)(=O)NCc2ccc3[nH]c(C)cc3c2)cc1,-14,i,2.7,-5,2.9,-2,-3,-1,8.0,-4
Cn1c(OCc2cccnc2)nc2c1c(=O)n(Cc1ccc(Cl)cc1)c(=O)n2C,.,.,.,2,0.2,6,.,.,.,-13
Cc1ccc(NC(=O)c2ccc(CSc3ccccn3)cc2)c(O)c1,3,i,-12,40,4.2,-7,-36*,-6.9*,-3.1*,-5
CCOc1ccc(-c2nnc(-c3ccco3)o2)cc1OCC,-8,.,.,-13,-8.5,13,.,.,.,3
CC(C)N(CCNC(=O)c1cn(C)c2ccc(S(=O)(=O)N(C)C)cc2c1=O)Cc1ccccc1,-1,i,-6.4,1,-0.6,6,9,14,-1.9,0
CC1(c2ccc([N+](=O)[O-])c(CS(=O)(=O)c3ccccc3)c2)OCCO1,0,i,0.9,-8,2.3,4,6,8,-1.3,14
Cc1c(N2C(=O)c3ccccc3C2=O)c(=O)n(-c2ccccc2)n1C,-2,.,.,-11,0.0,-11,.,.,.,3
COc1cc(O)c(C(CC(=O)N2CCN(c3ccccc3)CC2)c2ccc3c(c2)OCO3)c(OC)c1 (stereo not drawn),3,.,.,-22,-2.3,-16,.,.,.,17
CCOc1ccc(S(=O)(=O)N(C)CC(=O)NC2CCCC2)cc1,-6,i,-0.9,1,2.0,0,0,-3,0.7,0
CCOc1ccc2nc(N3CCCCCC3)sc2c1,7,i,-1.7,90*,-2.6,5,-32*,-24*,-3.1*,-16
COc1cc(OC)cc(-c2nnc(SCC(=O)Nc3ccc(C(=O)O)cc3)s2)c1,.,i,-0.4,-6,3.7,-18,15,21,20,-2
COc1ccc(-c2nc3ccccn3c2NCc2ccc3c(c2)OCO3)cc1,7,.,.,?,-1.8,6,.,.,.,-45
CCCCCN(C(=O)CCC(=O)OCC(=O)N(CC)c1ccccc1)c1c(N)n(CCCC)c(=O)[nH]c1=O,-3,i,-0.1,-5,?,-4,6,16,0.4,4

compound,Beta apoptosis,FGF22 binding,AF4-AF9 inh,ALR inh,RanGTP-Impb inh,T cruzi inh,rRNA inh HTS,rRNA inh HTS OD600,rRNA inh HTS RFP,Calb FLC
N#CCCN1CCN(S(=O)(=O)c2ccc(S(=O)(=O)NC3CCCC3)cc2)CC1,4,i,0.9,-6,2.2,1,6,7,0.8,7
O=C(Cc1ccccc1)Nc1ccccc1C(=O)NCC1CCCO1 (stereo not drawn),-6,i,1.3,-18,8.3,-3,0,-2,3.1,-2
O=C(O)c1cc(-c2ccc(Cl)s2)[nH]n1,-3,i,3.7,0,4.3,-4,9,2,-4.3,0
COc1ccccc1N1CCN(CCCCOc2c(OC)cccc2OC)CC1,-2,i,2.1,8,?,-3,8,5,0.8,-37
O=C(N/N=C/c1cc(Br)cc(Br)c1O)c1cccc(S(=O)(=O)N2CCOCC2)c1,-11,i,-17,-4,-4.2,38,-3,3,6.3,17
COC(=O)c1cc(S(=O)(=O)N2CCN(c3ccc([N+](=O)[O-])cc3)CC2)c[nH]1,.,i,-2.6,-2,2.4,1,0,5,1.2,11
Nc1c(Cl)ncnc1NCC(O)CO (stereo not drawn),1,i,-1.9,.,-2.8,.,14,9,3.0,11
Cc1ccc(C)c(/C(O)=C2/C(=O)C(=O)N(CCN3CCOCC3)C2c2ccco2)c1 (stereo not drawn),4,.,.,3,2.1,-4,.,.,.,?
CN(C)C(=O)c1ccc(NC(=O)c2cccnc2)cc1,96*,.,.,-1,1.3,-5,.,.,.,-15
O=C(N/N=C/c1ccc2c(c1)OCO2)c1ccc2c(c1)OCCO2,6,.,.,7,-1.5,-13,.,.,.,-6
CCOc1ncccc1C(=O)Nc1cc(S(=O)(=O)N2CCCCC2)ccc1C,2,i,0.4,-3,.,.,11,14,2.8,.
CC(OC(=O)CCN1C(=O)C2CC=CCC2C1=O)C(=O)Nc1cccc(Cl)c1 (stereo not drawn),-1,i,-0.5,.,0.5,-1,1,7,4.8,2
CCOC(=O)N1CCN(c2c(NCCCN3CCCCCC3)c(=O)c2=O)CC1,-4,i,-5.6,-42,5.8,-6,20,15,11,4
O=C(c1cccs1)n1nc(-c2cccnc2)nc1NCc1ccco1,.,i,1.8,.,0.5,10,5,-1,-2.3,-6
CC1(C)Oc2ccc(C(=O)N3CCc4ccccc43)cc2N(CC(=O)N2CCCC2)C1=O,5,.,.,-8,0.9,20,.,.,.,-39
CCN(CC)S(=O)(=O)c1cccc(-c2nnc(SC(C)C#N)n2Cc2ccccc2)c1 (stereo not drawn),9,.,.,-2,-4.2,13,.,.,.,-19
Cc1noc2ncnc(N3CCCCC3)c12,-8,i,-0.6,.,-0.8,-4,11,8,-5.4,-1
Cc1nc2ccc(NC3=NCCCCC3)cc2s1,-1,.,.,.,-0.6,-17,.,.,.,1
O=C(CCn1c(=O)oc2ccccc21)Nc1ccc2c(c1)OCCO2,-5,i,0.0,-1,-0.4,-6,-4,1,0.8,-5
Cc1c(NC(=S)NC(NC(=O)CC(C)C)C(Cl)(Cl)Cl)c(=O)n(-c2ccccc2)n1C (stereo not drawn),1,.,.,-13,0.9,0,.,.,.,-2
Cc1ccc(C2C(=O)N(C3CCC(C)CC3)CC(=O)N2C2CC2)cc1 (stereo not drawn),-5,i,2.8,-4,-4.8,3,3,-4,-1.9,-18
O=C(CSc1nnnn1-c1ccc2c(c1)OCCO2)N1CCN(C(=O)c2ccco2)CC1,-4,i,1.0,-6,5.5,0,-1,-9,-2.3,24
CN(CC(=O)O)S(=O)(=O)c1ccc(F)cc1,-8,.,.,-4,1.6,-11,.,.,.,7
Cc1ccc(N(Cc2cc3ccccc3[nH]c2=O)S(C)(=O)=O)cc1,-2,i,-5.4,-6,0.9,-10,5,-1,0.7,13
O=C(/C=C/c1ccc([N+](=O)[O-])cc1)NCCc1ccccc1,0,i,-1.0,.,-2.5,21,4,5,0.4,-45
Cn1c2[n+](c3ccc(Cl)cc3c1=O)Cc1ccccc1-2,.,i,-0.6,-2,7.5,13,.,.,.,21
COC(=O)C1CCN(C(=O)COC(=O)CC(NC(C)=O)c2ccccc2)CC1 (stereo not drawn),3,.,.,-17,-1.9,-8,.,.,.,10
CC(C)CN(C(=O)CN1CCN(c2cccc(Cl)c2)CC1)c1c(N)n(CC(C)C)c(=O)[nH]c1=O,0,i,-0.4,12,0.8,5,7,11,7.9,14
Cc1ccc(S(=O)(=O)c2nnn3c2nc(N2CCOCC2)c2ccccc23)cc1C,6,i,14,1,2.0,13,5,4,3.0,5
CCOC(=O)C1CCN(S(=O)(=O)c2ccc(Cl)cc2)CC1,2,i,-3.8,0,-4.0,13,11,11,1.4,0

compound,Beta apoptosis,FGF22 binding,AF4-AF9 inh,ALR inh,RanGTP-Impb inh,T cruzi inh,rRNA inh HTS,rRNA inh HTS OD600,rRNA inh HTS RFP,Calb FLC
COc1ccc(C(=O)NNC(=O)c2ccc(F)c(S(=O)(=O)N3CCOCC3)c2)cc1,-6,i,-0.5,-1,.,.,7,10,4.2,.
O=C(COc1ccccc1)Nc1nnc(-c2ccccc2)o1,.,i,-1.2,93*,?,-5,1,-6,9.9,-7
CCC(C)c1ccccc1NC(=O)Cc1coc2cc3c(cc12)CCC3 (stereo not drawn),1,.,.,.,4.2,-10,.,.,.,2
CCOC(=O)CSc1ccccn1,-3,i,-1.5,-3,0.3,-3,19,4,6.0,-28
O=C(CN1C(=O)c2ccccc2C1=O)N1CCN(c2ccccc2)CC1,1,.,.,-1,2.6,-7,.,.,.,6

# The list is partial. The share of hits here may be higher or lower than overall.
